Yeast UUG start: yeast start codon fidelity modulation; S. cerevisiae UUG-firefly luciferase reporter, luminescence/redox ratio; AID 602363; hit rate 0.13% among 350,000; activity score, % at 18.7 µM;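 active means replicate mean at a twofold rise or more, about +100% in these data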;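 further: firefly luciferase made from a UUG start codon reports start codon fidelity; reporter light over untreated wells divided by growth signal over untreated wells; some hits fall short of that in this replicate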
Rce1 inh: yeast Ras-converting enzyme inhibition. hit rate 0.27% among 290,000. Q03530. calls only. yeast membranes, quenched prenylated peptide cleavage fluorescence;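 active means fall in fluorescence gain of 50% or more versus controls, with final raw signal at or below 3038400; inconclusive means same 50% fall but final raw signal above 3038400; inactive means fall in fluorescence gain under 50%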;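 further: plate controls were neutral control wells for no effect and wells lacking membranes for full effect; tested at 10 µM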
Target sequence (Q03530 whole entry, looked up): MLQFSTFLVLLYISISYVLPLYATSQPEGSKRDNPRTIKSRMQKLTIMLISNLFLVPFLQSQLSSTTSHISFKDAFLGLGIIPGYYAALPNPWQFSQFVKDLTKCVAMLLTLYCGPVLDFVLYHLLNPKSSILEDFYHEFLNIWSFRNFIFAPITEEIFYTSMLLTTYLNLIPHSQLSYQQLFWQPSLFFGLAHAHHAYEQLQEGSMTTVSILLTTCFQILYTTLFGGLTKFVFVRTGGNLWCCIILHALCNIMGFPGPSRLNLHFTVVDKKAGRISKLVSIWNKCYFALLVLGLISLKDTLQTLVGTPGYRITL
MT1-MMP act inh: blocks activation of human MT1-MMP | AID 651647 | HT1080 RFP-PRO-GFP cells, GFP/RFP ratio fluorescence, overnight; percent of plate control window, DMSO zero | hit rate 0.061% among 360,000 | P50281 | GFP/RFP ratio change, % at 20 µM;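 active means GFP/RFP ratio change of at least 30% with cell ATP level not reduced by more than half and red fluorescence within 50% of control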; further: strong numbers were not always called active
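Assay system: HT1080 RFP-PRO-GFP cells. Benchmarks: DMSO vehicle wells and RFP-L50D-GFP reporter cell wells. Times: overnight cell settling, then overnight compound exposure, 37 °C, 5% CO2. Compound: 20 µM single dose, 1% DMSO. Read-out basis: GFP/RFP fluorescence ratio.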
Env fusion inh: blocks HIV Env-driven cell-cell fusion; HeLa-JRFL Env/CEM21 cell fusion, luciferase; inhibition, % at 12.3 µM; hit rate 1.1% among 360,000;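 active means mean replicate inhibition score of at least 50 and every replicate individually at or above 50; inconclusive means only one of the two criteria met; inactive means mean below 50 and not all replicates reaching 50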;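 further: 0% = plate neutral controls and 100% = maraviroc near 300 nM; one replicate is shown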
PABP FP inh: blocks human PABP binding to poly(A) RNA; fluorescence polarization; inhibition, % at 35 µM; hit rate 1% among 290,000;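 active means 50% or more with normal probe brightness, or confirmed in later tests; inconclusive means above 50% with abnormal brightness, or retests that disagree; inactive means below 50% or failed in later tests; about a fifth of its hits are not listed in these tables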;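 further: calls also rest on retests at 20 µM and on dose response follow-up; controls were probe without protein and protein plus probe with vehicle; some compounds called inactive have numbers as strong as hits; many hits fall short of the cut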
Target sequence (P11940 whole entry, looked up): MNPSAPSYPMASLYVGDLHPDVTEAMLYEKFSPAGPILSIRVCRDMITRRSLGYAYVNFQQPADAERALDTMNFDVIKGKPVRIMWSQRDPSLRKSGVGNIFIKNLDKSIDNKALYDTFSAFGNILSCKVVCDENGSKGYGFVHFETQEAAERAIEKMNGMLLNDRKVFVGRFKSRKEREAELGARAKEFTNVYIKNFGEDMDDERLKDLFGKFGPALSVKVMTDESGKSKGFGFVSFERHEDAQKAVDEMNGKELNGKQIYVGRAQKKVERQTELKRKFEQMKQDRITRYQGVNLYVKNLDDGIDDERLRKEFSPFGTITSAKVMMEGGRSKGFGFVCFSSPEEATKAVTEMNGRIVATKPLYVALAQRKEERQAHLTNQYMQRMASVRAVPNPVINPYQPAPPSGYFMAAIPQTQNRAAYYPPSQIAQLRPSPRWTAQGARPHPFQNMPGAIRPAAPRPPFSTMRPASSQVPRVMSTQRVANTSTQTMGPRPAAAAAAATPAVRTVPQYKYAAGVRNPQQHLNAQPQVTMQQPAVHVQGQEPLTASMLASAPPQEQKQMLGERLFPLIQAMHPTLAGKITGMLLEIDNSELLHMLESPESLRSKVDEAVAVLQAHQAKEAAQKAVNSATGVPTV
CSC inhib: cancer stem cell inhibition. hit rate 1.1% among 300,000. cancer stem cell-like cells viability, luminescence. inhibition, % at 7.5 µM;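 active means mean at 75% or more and at least half the replicates too; inconclusive means mean and replicates disagree; tested in HMLE shEcad cells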;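 further: 0% = median of negative and 100% = median of positive control wells; the first replicate is given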
eIF4H inh: inhibitors of RNA binding by human eIF4H. eIF4H fluorescence polarization binding assay. inhibition, % at 35 µM. hit rate 0.94% among 290,000;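 active means 50% or more with normal probe brightness, or confirmed in later tests; inconclusive means above 50% with abnormal brightness, or retests that disagree; inactive means below 50% or failed in later tests; about a fifth of its hits are not listed in these tables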;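 further: calls also rest on retests at 20 µM and on dose response follow-up; 0% = protein and probe with vehicle and 100% = probe without protein; strong numbers were not always called active; many hits fall short of the cut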
eIF4H inh retest: recorded beside eIF4H inh, whose call it bears; inhibition, %; compound at 20 µM; confirmation average;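 mean of two retest wells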
PABP FP inh retest: also measured in PABP FP inh; calls as there; inhibition, %; compound at 20 µM; confirmation repeats;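 mean of two retest wells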
MT1-MMP act inh RFP: further read-out of MT1-MMP act inh, marked with its call; RFP signal change, %; measured here: RFP expression control read;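 0 = vehicle wells; hits needed this value within 50% of zero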
Numbers without * were called inactive; i = inactive; ? = inconclusive; . = not tested or not shown.

Sample of the layout:
SMILES	Yeast UUG start	Rce1 inh	MT1-MMP act inh	MT1-MMP act inh RFP	Env fusion inh	PABP FP inh	CSC inhib	eIF4H inh	others
O=c1[nH]c(SCc2nc3ccccc3c(=O)n2-c2ccccc2C(F)(F)F)nc2ccccc12	-9	i	-5	-13	-83	-6	11	-8
COc1ccc(-c2noc(CSc3nnc(CCc4ccccc4)n3-c3ccccc3)n2)cc1OC	-2	i	-5	-9	.	1	-13	3
Cc1cccc(OCCCC(=O)O)c1C	.	i	3	3	0	0	-10	-7
CC(=O)c1cccc(NC(=O)CNC(=O)c2cc3ccccc3o2)c1	-29	i	6	2	0	2	-13	-11
CCOC(=O)c1sc(-c2ccc(F)cc2)cc1N	.	i	-3	-2	-55	3	14	-14

The whole of this part (from the top)
SMILES	Yeast UUG start	Rce1 inh	MT1-MMP act inh	MT1-MMP act inh RFP	Env fusion inh	PABP FP inh	CSC inhib	eIF4H inh	others
O=c1[nH]c(SCc2nc3ccccc3c(=O)n2-c2ccccc2C(F)(F)F)nc2ccccc12	-9	i	-5	-13	-83	-6	11	-8
COc1ccc(-c2noc(CSc3nnc(CCc4ccccc4)n3-c3ccccc3)n2)cc1OC	-2	i	-5	-9	.	1	-13	3
Cc1cccc(OCCCC(=O)O)c1C	.	i	3	3	0	0	-10	-7
CC(=O)c1cccc(NC(=O)CNC(=O)c2cc3ccccc3o2)c1	-29	i	6	2	0	2	-13	-11
CCOC(=O)c1sc(-c2ccc(F)cc2)cc1N	.	i	-3	-2	-55	3	14	-14
CC(C)C(=O)N1CCN(c2ccccc2NC(=O)Cc2ccc(Cl)cc2)CC1	7	i	4	-1	-41	-7	-8	-9
COc1ccc(-c2cc(C(=O)N(C)CC(=O)Nc3ccccc3Cl)c3ccccc3n2)cc1OC	-11	i	-5	4	21	.	25	.
CCC(C)c1ccc(NC(=S)Nc2ccc(OC)cc2C)cc1 (stereo unspecified)	-23	i	-1	-3	-2	7	15	-12
O=C(c1nc2ccc(Cl)cn2c1CN1CCC[C@H]1CO)N1CCCCCCC1	-16	i	-10	7	27	?	-8	?
Cc1csc(OCc2ccc(C#N)cc2)n1	-9	.	3	0	-19	6	6	10
COc1ccc(OCC(=O)Nc2ccc3c(c2)nc(CCN2CCOCC2)n3C)cc1	-18	i	-3	-3	13	-7	9	3
CC(C)(C)C(=O)Nc1ccc(C(=O)NNC(=O)c2ccccc2)cc1	-16	i	1	5	2	-3	14	4
O=C1N/C(=C/c2ccc(N3CCCC3)cc2)C(=O)N1c1ccccc1	-15	i	-20	-3	-7	-3	21	1
COC(=O)c1sc2nc(CN3CCN(c4cccc(C(F)(F)F)c4)CC3)[nH]c(=O)c2c1C	.	i	-31	9	-12	-8	.	66	eIF4H inh retest=1;PABP FP inh retest=10
CCOC(=O)CN1N=C(c2ccc(Cl)s2)CSC1=O	.	i	5	6	-8	-7	4	-5
O=S(=O)(Cc1ccccc1)N1CCC(N2CCN(c3ccccc3)CC2)CC1	-2	i	0	-2	3	0	6	5
O=C(NCCCN1CCOCC1)c1cc(-c2ccc(O)cc2)on1	-13	i	5	2	0	0	-4	-7
COc1ccc(-c2ncncc2-c2ccc(OC)c(OC)c2)c(O)c1	-1	i	-10	-4	24	11	-4	-2
COC(=O)c1ccccc1SC1CC(=O)N(c2ccccc2)C1=O (stereo unspecified)	.	i	0	2	-4	15	.	0
CCOc1ccc(C(=O)NC(C(=O)NCCc2ccc(OC(F)F)cc2)C(C)C)cc1 (stereo unspecified)	-21	.	-9	-4	9	2	14	-12
CCOC(=O)c1c(NC(=O)COC(=O)c2ccc(S(=O)(=O)C(F)F)cc2)sc(C(=O)N(C)C)c1C	-6	.	-1	3	-12	.	.	.
CCCn1c(SCC(=O)Nc2ccc(Cl)cc2)n[nH]c1=O	.	i	6	-4	5	0	-2	-3
CCCC(=O)N1CCCC(c2cc(C(=O)NCc3ccc(F)cc3)no2)C1 (stereo unspecified)	-19	.	1	1	12	.	.	.
Cc1nnc(Sc2c(-c3ccccc3)c3ccc(Cl)cc3[nH]c2=O)s1	-4	i	-7	-5	14	2	-20	-16
O=[N+]([O-])c1ccc2c(c1)CCN2	-7	.	3	1	3	.	.	.
Cc1c([N+](=O)[O-])cc(C(=O)Oc2cccc(C(=S)N3CCOCC3)c2)cc1[N+](=O)[O-]	.	i	3	1	-22	10	-9	0
O=C1NC2=C(C(=O)CCC2)C(c2ccccc2[N+](=O)[O-])N1 (stereo unspecified)	.	i	-6	6	4	98*	-5	107*
COc1ccc(C(=O)Nc2ccc3[nH]ccc3c2)cc1	.	i	6	-3	-53	.	32	.
C#CCOCCOCCOCCNc1nc(N2CCOCC2)nc(N2CCN(C(=O)[C@H](Cc3ccc(O)cc3)n3cc([C@@H](N)C(C)CC)nn3)CC2)n1 (stereo partly specified)	-4	i	3	0	-17	-12	-10	-4
Cc1ccc2[nH]c(=O)c(CN(C(=O)c3cccs3)c3ccccc3)cc2c1	-12	i	-19	-20	21	1	17	13
COc1ccc(Cl)cc1C(=O)N1CCN=C1SC	3	i	-7	5	-1	-14	17	-8
COC(=O)Cc1c(O)ccn(Cc2ccc(F)cc2)c1=O	-2	i	0	3	.	-4	-1	11
Cc1c(NC(=S)NC(=O)c2cc3ccccc3o2)c(=O)n(-c2ccccc2)n1C	.	i	0	1	15	0	-2	-5
COc1ccc(C2=NOC(Cn3nc(C(=O)NCC4CC4)cc3-c3ccccc3)C2)cc1 (stereo unspecified)	3	i	0	-4	35	.	-7	.
Cn1cccc1Cc1nnc(SCC(N)=O)n1CCc1ccccc1	-9	i	-1	3	-16	-7	-8	-6
CC1=NN(c2ccc([N+](=O)[O-])cc2)C(c2ccccc2)C1 (stereo unspecified)	.	i	1	-6	13	-6	.	5
CN1C/C(=N\S(=O)(=O)c2ccccc2)N(C)C1=O	-10	i	-7	-3	-4	-5	-2	-6
O=C(COc1ccc(F)cc1Br)N1CCc2ccccc21	-2	i	2	1	-324	-2	-12	-4
Cn1cc(S(=O)(=O)Nc2ccc(Cl)cc2Cl)c(=O)n(C)c1=O	-12	i	-4	2	.	7	-3	22
CN(C)c1ccc(P(=O)(CC(=O)N/N=C/c2ccc(C#N)cc2)OCCCl)cc1 (stereo unspecified)	.	i	-7	-4	-9	-4	-10	-3
COc1ccc2c(c1)[C@H]1[C@H](CO2)[C@H](c2ccccc2)[C@]2(C)C(=O)Nc3cc(F)c(F)cc3C(=O)N12	3	.	-24	-15	24	.	22	.
C=CCn1c(SCC(=O)c2ccc(O)c(O)c2)nnc1-c1ccc(C)cc1	-20	.	6	-10	-17	.	27	.
COc1ccc2nc(N3C(=O)CC(Cc4cc(C)cc(C)c4)C3=O)sc2c1 (stereo unspecified)	-22	i	4	1	.	-5	1	-6
COc1ccc(CC(=O)N2CCN(c3ccccc3OC)CC2)cc1OC	-11	i	3	1	4	-11	-7	-10
Cc1ccc(C)c2nc(Cl)c(C3NC(=O)c4ccccc4N3)cc12 (stereo unspecified)	.	i	2	-4	-6	5	40	-1
c1ccc(Cn2nnc3c(N4CCCC4)ncnc32)cc1	3	i	3	3	-77	-3	.	-2
CCOc1[nH]n(-c2ccccc2)c(=O)c1C=NCc1ccncc1	.	i	-3	-1	-9	21	-2	-4
CCN(CC)C(=O)/C(=C\c1cccc([N+](=O)[O-])c1)NC(=O)c1ccco1	-10	i	-4	1	12	5	-1	-4
COc1ccc(C(CNC(=O)c2cccn2C)N2CCOCC2)cc1 (stereo unspecified)	-4	.	-3	3	-5	.	.	.
O=C(Oc1ccc(O)cc1)C12CC3CC(CC(C3)C1)C2	.	i	5	-3	5	8	21	4
O=C(c1cccs1)N1CCN(c2ccc(Cl)cc2)CC1	2	i	-1	-3	8	-8	-8	-4
COC(=O)C(NC(=O)CNS(=O)(=O)c1ccc(Br)cc1)c1ccccc1 (stereo unspecified)	.	i	1	2	-3	-2	-20	-4
CN(Cc1ccccc1)C(=O)CC(c1ccccc1)c1cc(Cl)ccc1O (stereo unspecified)	-28	i	-6	-7	37	-7	26	-6
Cc1cc(C(=O)COc2ccc(C#N)cc2)c(C)n1C1CC1	-1	i	4	2	64*	.	-5	.
CCCC(=O)Nc1nc2nc(-c3ccccc3)cc(=O)n2[nH]1	-43	i	8	4	.	5	-17	0
CC(C)c1ccc(C(=O)NN2CCOCC2)cc1	-8	i	1	3	18	2	-12	-2
O=S(=O)(NC1CCCCC1)c1ccc(Cl)s1	-16	i	9	5	.	6	6	-11
COC(=O)C1=C(C)NC(=O)NC1c1ccco1 (stereo unspecified)	.	i	-1	2	4	2	4	-5
O=C(CCS(=O)(=O)c1ccccc1)Nc1nnc(C(F)(F)F)s1	.	i	2	4	9	1	10	25
COc1ccc2c(c1)c(CC(=O)NCc1cc([N+](=O)[O-])ccc1O)c(C)n2C(=O)c1ccc(Cl)cc1	-28	i	11	-5	22	3	5	-6
Continued:
SMILES	Yeast UUG start	Rce1 inh	MT1-MMP act inh	MT1-MMP act inh RFP	Env fusion inh	PABP FP inh	CSC inhib	eIF4H inh	others
CCCCNC(=O)CSc1nc2ccccc2c(=O)n1CC1COc2ccccc2O1 (stereo unspecified)	-9	i	-6	-4	-15	-5	5	-4
O=C(COC(=O)c1cccc(Cl)c1Cl)NCc1cccs1	-14	.	-3	-1	5	.	-17	.
Cc1sc2c(c1C)c(=O)n(-c1ccccc1)c1nncn21	5	i	1	4	?	9	-9	-1
Nc1cc(Br)cc2c1[nH]c(=O)c1ccccc12	-13	.	-2	-1	-38	.	.	.
O=C(CSc1nnnn1Cc1ccccc1)Nc1cccc(F)c1	-13	i	0	1	7	4	12	2
OCCC1CN(Cc2ccc3nsnc3c2)CCN1CCc1ccccc1 (stereo unspecified)	.	i	3	2	18	-2	12	-8
COc1ccc(OC)c(NC(=O)c2cc3ccccc3o2)c1	-15	i	-6	0	-76	-7	.	1
O=C(c1ccco1)N1CCN(C(=O)C2(S(=O)(=O)c3ccc(Cl)cc3)CC2)CC1	5	.	-3	-1	-5	-2	-9	-6
Cn1c(CN2CCOCC2)nnc1SCC(=O)Nc1ccc([N+](=O)[O-])cc1O	-7	i	4	0	10	7	7	10
O=C(CSc1ncnc2c1cnn2Cc1ccccc1)Nc1ccc2c(c1)OCCO2	.	i	2	-4	.	-2	3	4
O=C(Cc1ccc2c(c1)OCCO2)N1CCN(S(=O)(=O)c2ccccc2C(F)(F)F)CC1	4	i	-1	1	.	-4	2	0
Cc1ccc2nsnc2c1S(=O)(=O)N1CCCC1C(=O)O (stereo unspecified)	.	i	1	5	-1	5	-13	-2
O=C(Cn1c(=O)oc2cc(S(=O)(=O)N3CCCC3)ccc21)N1CCN(c2ccccc2F)CC1	11	i	0	9	-14	-24	7	5
O=C(N/N=C/c1coc2ccccc2c1=O)c1ccccc1	-42	i	-4	0	-5	-12	0	3
O=C(O)c1cc([N+](=O)[O-])ccc1NCCO	.	i	0	2	-16	3	.	-2
C=CCn1c(N)c(C(=O)N2CCN(C)CC2)sc1=S	-15	i	10	1	-86	-6	6	-1
CC1SC(=S)N(c2ccc(N(C)C)cc2)C1=O (stereo unspecified)	-3	i	3	-4	-11	3	-8	8
Nc1no[n+]([O-])c1-c1ccccc1	.	i	-1	3	17	4	-15	0
CC(=O)Nc1ccc(C=C(C(C)=O)C(C)=O)cc1	.	i	-1	6	-3	-5	7	-10
CCN(CC)CCNC(=O)c1ccc2c(c1)ncn2C1CCCCC1	-14	i	0	1	.	-1	17	10

Source: PubChem BioAssay (several laboratories)

Not a hit list; overall some 2.9% were active at least once.
